High-throughput results from PubChem.
RVFV N-RNA FP – RVFV nucleocapsid-RNA interaction inhibition. P21700. RVFV N-RNA binding, fluorescence polarization; hits give low values. % bound, % (test concentration not listed). 20,000 tested, 0.1% active;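 active = between 0 and 58% in either replicate with normal brightness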;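 also: 100 nL library stock added to about 12 µL; 100% = protein and probe without compound and 0% = probe alone; numbers are from one replicate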
Target sequence (P21700 whole entry, looked up): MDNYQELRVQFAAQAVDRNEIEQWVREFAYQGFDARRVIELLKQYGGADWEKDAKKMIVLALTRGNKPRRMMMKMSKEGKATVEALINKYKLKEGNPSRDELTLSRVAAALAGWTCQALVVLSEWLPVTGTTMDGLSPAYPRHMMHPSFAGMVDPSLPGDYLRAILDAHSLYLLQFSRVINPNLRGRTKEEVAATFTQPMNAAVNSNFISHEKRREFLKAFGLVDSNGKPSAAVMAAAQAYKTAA
* hit, by the source's call; & = joins results of further samples. This is a subset, so the mix of outcomes need not match the whole.

A first look, 6 compounds:
nr	SMILES	RVFV N-RNA FP
1	C=C(C)Cc1c(C)nc(SCC(=O)C(C)(C)C)nc1OC(=O)N(C)C	94
2	CN(/N=C\C=C\c1ccccc1)c1ccccn1	93
3	CC(C)OC(=O)CCC/C=C\C[C@@H]1[C@@H](CC[C@@H](O)CCc2ccccc2)[C@H](O)C[C@@H]1O	93&94
4	Cc1c(NC(=O)NNc2ccccc2)sc2nc(-c3ccc(Cl)cc3)nn12	96
5	O=C1NC(=O)C(c2ccccc2)(c2ccccc2)N1	97&96&97
6	CCc1cc(=O)oc2c(CN(C)C)c(O)c(Cl)cc12	96

Main list, previewed entries included:
nr	SMILES	RVFV N-RNA FP
1	C=C(C)Cc1c(C)nc(SCC(=O)C(C)(C)C)nc1OC(=O)N(C)C	94
2	CN(/N=C\C=C\c1ccccc1)c1ccccn1	93
3	CC(C)OC(=O)CCC/C=C\C[C@@H]1[C@@H](CC[C@@H](O)CCc2ccccc2)[C@H](O)C[C@@H]1O	93&94
4	Cc1c(NC(=O)NNc2ccccc2)sc2nc(-c3ccc(Cl)cc3)nn12	96
5	O=C1NC(=O)C(c2ccccc2)(c2ccccc2)N1	97&96&97
6	CCc1cc(=O)oc2c(CN(C)C)c(O)c(Cl)cc12	96
7	Brc1ccc(-c2noc(-c3ccccc3)n2)o1	94
8	CCOc1ccc(OCCCCn2ccnc2)cc1	104
9	N#CCCN(Cc1ccccc1)C(=O)c1nccnc1C(=O)O	98
10	COc1ccc(N2CCN(CCCNC(=O)NC3CC(=O)N(c4ccc5c(c4)OCCO5)C3)CC2)cc1 (stereo not drawn)	102
11	COc1ccccc1NC(=O)C(C)NS(=O)(=O)c1ccccc1 (stereo not drawn)	93
12	COc1ccc2c(=O)c(Oc3ccccc3)coc2c1	94
13	O=CNCCc1c[nH]c2ccccc12	84
14	CCOc1ccnc(SCC(=O)CC(=O)c2ccccc2)c1C#N	94
15	Fc1ccc2c(c1)-c1nocc1CS2	96
16	CC(C)(C)Oc1ncc(Br)c(OC(C)(C)C)n1	94
17	CCOC(=O)NCc1n[nH]c(=O)c2ccccc12	93
18	COC(=O)c1ccsc1NC(=O)c1cccc(C)c1	97
19	CCCCCCCCCCCCCCCCCCN(CCCCCCCCCCCCCCCCCC)CCCN(CCO)CCO	92
20	CC1(C)SC(c2ccc(C3NC(C(=O)O)C(C)(C)S3)cc2)NC1C(=O)O (stereo not drawn)	104
21	COc1cc(NC(=O)COc2cc(C)ccc2C)c(C(=O)O)cc1OC	92
22	NC(N)=N/N=C/c1c(Cl)cccc1Cl	96&90
23	CN1CCN(C2=Nc3ccccc3Sc3ccc(Cl)cc32)CC1	99
24	CCCn1c(NC(=O)NCc2ccccc2)c2ccccc2nc1=O	91
25	CCc1ccn2cc(-c3ccc4c(c3)OCO4)nc2c1	93

Following part:
nr	SMILES	RVFV N-RNA FP
26	N#Cc1ccsc1NC(=O)c1ccncc1	94
27	Cc1csc(-c2coc3c(C)c(O)c(CN4CCN(CCO)CC4)cc3c2=O)n1	96
28	O=C(O)CCC(=O)Nc1ccccc1Cl	103
29	CCOc1cc(C)cc2oc(=O)cc(CC)c12	92
30	COC(=O)c1sc(S(=O)(=O)Nc2cccc(C(F)(F)F)c2)c(C(=O)OC)c1C	97
31	CN(C)S(=O)(=O)c1ccc(C(=O)Nc2ncnc3sccc23)cc1	94
32	COc1ccc(C2C(C#N)=C(SCC(=O)NCc3ccc4c(c3)OCO4)NC3=C2C(=O)CC(C)(C)C3)cc1 (stereo not drawn)	97
33	C[C@@]12C[C@H](O)CCN1CCc1ccccc12	89
34	Cc1cc(/C(N)=N/OC(=O)Nc2ccccc2)no1	93
35	Cc1cnc(=O)[nH]c1SCC(=O)c1ccc(F)cc1	88
36	NC(=O)C1CCN(c2ccc(Cl)nn2)CC1	94
37	COc1ccccc1C(CC#N)c1ccco1 (stereo not drawn)	90
38	CCC1(c2ccc(N)cc2)CCC(=O)NC1=O (stereo not drawn)	93&91&95
39	Cc1cc(C(C)(C)C)c(O)c(C)c1CC1=NCCN1	93&96
40	N#Cc1ccc(NC(=O)CSc2ncn[nH]2)cc1	94
41	N#Cc1c(NC(=O)CCn2cnnn2)sc2c1CCCC2	89
42	Cc1c(C(=O)N2CCC(C(N)=O)CC2)sc(N)c1C#N	91
43	O=C(NC1CC2CCC1C2)c1ccccc1 (stereo not drawn)	103
44	C=CCSc1n[nH]c(-c2ccc(OC)cc2)n1	104
45	CN(C)c1cccc(N(C)C)c1CNC(=O)NC(=O)c1c(Cl)cccc1Cl	92
46	Cc1ccc(-n2ncc3c(=O)n(CC(=O)N4CCc5ccccc54)cnc32)cc1C	92
47	Cc1ccc(S(=O)(=O)N(c2nc(N(C)C)nc(N(C)C)n2)n2cnnc2)cc1	97
48	CCCOc1ccc(C2C(C(=O)OC)=CN(CCOC)C=C2C(=O)OC)cc1	90
49	O=C(NCCCc1ccccc1)c1c(O)nc2sccn2c1=O	93
50	CC1=CS/C(=C(/C#N)C(N)=O)N1c1ccccc1	97

Overlap with the part before: two compounds; new compounds follow.
nr	SMILES	RVFV N-RNA FP
49	O=C(NCCCc1ccccc1)c1c(O)nc2sccn2c1=O	93
50	CC1=CS/C(=C(/C#N)C(N)=O)N1c1ccccc1	97
51	CC(NC(=O)c1nc2ncccn2n1)c1ccccc1 (stereo not drawn)	93
52	CCOC(=O)/C(C)=N\O	93
53	CC(C)N(Cc1ccccc1)C(=O)c1ccccc1	97
54	[O-]/[N+](=C\c1ccco1)C/C(=N/O)c1cccs1	94
55	CS/C(=C(/C#N)S(=O)(=O)c1ccc(Cl)cc1)N1CCOCC1	97
56	COc1cc(OC)cc(-n2c(-c3ccco3)nc3nc4ccccc4nc32)c1	93
57	CC1=C(C#N)C2(O)C(=O)c3ccccc3C2(O)N1 (stereo not drawn)	90
58	CC(c1ccccc1)n1c(SCC(=O)c2cc(-c3ccccc3)no2)n[nH]c1=O (stereo not drawn)	103
59	COc1cccc(NC(=S)NC(C)(C)C)c1	97
60	Cc1nc(Sc2nc3ccccc3o2)c2c3c(sc2n1)CCCC3	92
61	C[C@H]1O[C@H](OC2[C@@H](O)[C@@H](O)C(O)[C@H](O)[C@H]2O)[C@@H](N)C[C@@H]1N=C(N)C(=O)O (stereo partly drawn)	107
62	O=C(Nc1ccc(-c2ccc(N3CCCCC3)nn2)cc1)C(F)(F)F	111
63	Cc1ccc(-c2oc(N)c(C#N)c2-c2ccc(C)cc2)cc1	97
64	COC(=O)c1cccc(COC(=O)c2cc(=O)[nH]c3ccccc23)c1	88
65	O=CN1CCN(C(=O)CCc2ccccc2)CC1	91
66	FC(F)(F)c1[nH]ncc1-c1nnnn1-c1ccccc1	93
67	CC(Sc1ccc(Cl)cc1)C(=O)NCC1CCCO1 (stereo not drawn)	94
68	CC1CC(=O)N(Cc2ccccc2F)c2ccccc2S1(=O)=O (stereo not drawn)	90
69	O=S(=O)(c1ccc(-c2cc(C(F)(F)F)on2)s1)N1CCC(O)(c2ccc(Cl)cc2)CC1	104
70	COc1ccc(NNC(=O)C(O)(c2cccc(OC)c2)c2cccc(OC)c2)cc1	95
71	CSc1nnc2c3ccccc3n(Cc3ccccc3)c2n1	104
72	CC1CCCCN1C(=O)Cc1ccc(Br)cc1 (stereo not drawn)	96
73	O=C(O)CSc1ncnc2c1nnn2Cc1ccccc1F	102
74	C1CCC(CN2CCOCC2)CC1	97
75	CC(C(O)c1ccc(O)cc1)N1CCC(Cc2ccccc2)CC1 (stereo not drawn)	98&99&99

Following part:
nr	SMILES	RVFV N-RNA FP
76	C[C@@H]1CC[C@H]2C(C)(C)C3CC12CCC3(C)O (stereo partly drawn)	97
77	O=P(O)(CCc1ccccc1)CN1CCCCC1	99
78	O=C(O)CN(CC(=O)O)c1ccc2cccc(O)c2n1	106
79	CCOC(=O)c1c(C)n(Cc2ccccc2)c2ccc(OCC(O)CN3CCN(CCO)CC3)cc12 (stereo not drawn)	96
80	O=C1C=C(NNc2ccccc2)CCC1	98
81	CSc1n[nH]c(=O)n1-c1cccc(C(F)(F)F)c1	92
82	CNc1nc2c(C)cccn2c(=O)c1C=Nc1ccc(OC)cc1	96
83	N=c1c2c(-c3ccccc3)c(-c3ccccc3)n(Cc3ccco3)c2ncn1CCCN1CCOCC1	92
84	OCCN/N=C/c1cc(Cl)cc(Cl)c1O	89
85	CCOC(=O)c1cn2nc(Oc3ccc(C(=O)OC)cc3)ccc2n1	92
86	CC1Cc2ccccc2N1S(C)(=O)=O (stereo not drawn)	95
87	CC1(C)NC(C)(C)c2nonc2/C1=N\O	100
88	CCCCc1ccc(S(=O)(=O)NNC(=S)NCc2ccco2)cc1	109
89	COc1ccc(CCN(C)Cc2ccccc2C)cc1OC	111
90	COC(=O)C(C)N1C(=O)S/C(=C/c2ccc(C)o2)C1=O (stereo not drawn)	103
91	C[C@]12C=CC(=O)C=C1CC[C@H]1[C@@H]3C[C@@H](O)[C@](O)(C(=O)CO)[C@@]3(C)C[C@H](O)[C@@]12F	94&98
92	OCCOCCN1CCN(Cc2ccc(Cl)cc2)CC1	97
93	O=C(Cn1cnc2c(oc3ccccc32)c1=O)Nc1cccc(C(F)(F)F)c1	105
94	O=S(=O)(c1ccccc1)c1ccc(I)cc1	97
95	C#CCSc1nc(C)cc(C(=O)OCC)c1C#N	93
96	O=C(Nc1ccc2c(c1)oc1ccccc12)c1cccc(N2C(=O)CCC2=O)c1	108
97	O=C(Nc1ccc(Nc2ccccc2)cc1)C1CC1	92
98	O=c1ccoc2ccc(Cl)cc12	93
99	c1ccc2[nH]c(C3CCN(CC4OCCO4)CC3)nc2c1	92
100	CCc1n[nH]c(=S)n1/N=C/C(C)=C\c1ccccc1	99

New compounds follow.
nr	SMILES	RVFV N-RNA FP
101	COC(=O)CN(C)C(=O)c1cc(OC)c(OC)c(OC)c1	92
102	CCOCC(=O)Nc1cc(C)cc(C)c1	103
103	O=C(c1cc2ccccc2cc1O)N1CCCCCC1	92
104	COc1ccc2oc3nc(=O)c4ccccc4c-3cc2c1	92
105	CCCn1c(=O)c2[nH]c(C3CCCC3)nc2n(CCCOC(=O)c2ccc(S(=O)(=O)F)cc2)c1=O	95
106	CC(=O)NC(=O)/C(C#N)=C/N1CCN(Cc2ccccc2)CC1	96
107	OCCCN=Cc1ccc(Cl)cc1Cl	89
108	CC(C)(C)C1(C)OC(=O)C(=Cc2ccc3c(c2)OCO3)C(=O)O1 (stereo not drawn)	99
109	CCOc1ccc(C(=O)Nc2cccc(-c3ccc4nncn4n3)c2)cc1	107
110	CC(C)Oc1ccc(CNC(=O)C2CCCCC2)cc1	99
111	CCCCOCC1CN(c2ccccc2)C(=O)CS1 (stereo not drawn)	112
112	NP(N)(=O)NC(=O)c1ccc(F)cc1	96
113	COc1ccc(OCC(O)CNC(=O)Nc2cc(C)cc(C)c2)cc1 (stereo not drawn)	94
114	Cc1nc(-c2ccccc2)sc1-c1nnc(-c2ccc(C(F)(F)F)cc2)o1	92
115	CN1C(=O)/C(=C/c2ccc(O)cc2)SC1=Nc1ccc(Cl)cc1	103
116	CCOC(=O)C1C(=O)NC23CCCCC2C1c1cc(OC)ccc1O3 (stereo not drawn)	98
117	OCc1cccnc1	99
118	CN1CCC(N(C)CC2=CCC3CC2C3(C)C)CC1 (stereo not drawn)	106
119	CS(=O)(=O)N1CCN(C(=S)NCc2ccc(F)cc2)CC1	99
120	CSc1ccc(S(=O)(=O)NC2CCCC2)cc1	95
121	N#CCCS(=O)(=O)c1ccc(Br)cc1	93
122	N#CC(C(=O)CN1CCN(c2ccccc2)CC1)c1ccccc1 (stereo not drawn)	97
123	Cc1ccc(C2=NN(C(=O)CN3CCC(C)CC3)C(c3ccco3)C2)cc1 (stereo not drawn)	98
124	C=CCn1c(N)cc(=O)nc1SCC(=O)OC1CC2CCC1(C)C2(C)C (stereo not drawn)	93
125	Cc1c(Cc2ccc3c(c2)OCO3)sc(NC(=O)c2ccco2)c1C(N)=O	95

Additional results.
nr	SMILES	RVFV N-RNA FP
126	CCCCOc1ccc(OCCNC(=O)c2ncn[nH]2)cc1	94
127	Cn1[nH]c(=O)c2ncccc2c1=O	98
128	COc1ccc(N2CCN(/C=C(\C#N)c3nc4ccccc4s3)CC2)cc1	91
129	CC1=C(C(=O)OC2CC(C(C)C)CCC2C)C(CC(=O)O)C(=O)N1 (stereo not drawn)	102
130	COc1ccc(CC(=O)NCC2COC3(CCCCC3)O2)cc1OC (stereo not drawn)	90
131	CN1CCN(S(=O)(=O)c2ccc(NC(=O)c3ccncc3)cc2)CC1	94
132	COc1ccccc1-n1ccn(CC#N)c(=O)c1=O	98
133	Cc1cc(C)nc(N=Nc2cc(C(C)(C)C)c(O)c(C(C)(C)C)c2)n1	93
134	COC(=O)N1N=C(C2CCCCC2)CC1(O)C(F)(F)F (stereo not drawn)	95
135	CCCC(=O)NCCc1cn2ccc(C)cc2n1	98
136	O=C1/C(=C/C=C/c2ccco2)SC(=S)N1C1CCCCC1	105
137	Cc1nc(NC(=S)NC(=O)c2ccc(-c3cccc(Cl)c3)o2)ccc1Br	95
138	O=C(NC(=O)c1ccccc1C(F)(F)F)NN1CCOCC1	94
139	O=C(NC(=O)N1CCN(c2ccc(F)cc2)CC1)c1ccccc1	94
140	CCCNC1=C(c2ccc(OC)cc2)C(=O)c2ccccc21	95
141	O=C(Cn1nc(-c2ccco2)ccc1=O)NCCc1ccccc1	98
142	Nc1nc2n(n1)C(=O)CC(c1ccccc1)N2 (stereo not drawn)	95
143	CON=C(C(=O)NC1C(=O)N2C(C(=O)O)=C(COC(C)=O)CSC12)c1csc(N)n1 (stereo not drawn)	95
144	COC(=O)C(C)N(c1ccc(C)cc1)S(C)(=O)=O (stereo not drawn)	98
145	c1cc(CN2CCCCCCC2)cs1	102
146	COc1cccc(C(=O)COc2nc(-c3cccs3)cc(-c3ccco3)c2C#N)c1	81
147	Fc1ccc(NC(=S)N2CCCCC2)cc1	91
148	CCCN1CC[C@@H]2c3cc(O)ccc3CC[C@@H]21	95
149	O=CN1CCN(c2nc(-c3ccccc3)cs2)CC1	95
150	CC(=O)Oc1ccccc1C(=O)Nc1ccc(OC(F)F)cc1	105
151	COC(=O)NCCCN1CCCC1=O	89
152	CSc1ccccc1NC(=O)C(C)NS(=O)(=O)c1ccc(C)cc1 (stereo not drawn)	96

Single entries from the results shown.
#132 in RVFV N-RNA FP → 98
#127 in RVFV N-RNA FP → 98
#133 in RVFV N-RNA FP → 93
